# Hedgehog inh = Hedgehog pathway signaling inhibitors, primary screen, luminescence, Shh-LIGHT2 cells, Gli-luciferase. Shh-LIGHT2 Gli-luciferase reporter, 30 h. inhibition, % (no concentration beside the values). hit rate 2.1% among 22,000;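 active means replicate mean of 65% or more; inconclusive means mean lower but half the replicates past it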;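 further: pathway switched on by Shh-conditioned medium diluted 1 in 25 in low serum; 100 nL library stock added to about 40 µL; 0% = median of neutral wells and 100% = positive control level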
# YB-1 expr inh = inhibitors of YB-1 gene expression, primary screen, cell-based, fluorescence | U2OS, qRT-PCR YB-1 vs CDIP delta delta Cp, 16 h; active compounds read high; zero = DMSO, each unit about twofold | delta delta Cp (YB-1 minus CDIP) (concentration not given with the values) | hit rate 0.37% among 30,000 | AID 434959, 2010;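 active means delta delta Cp rounded down to an integer at or above 3, about 3 SD of DMSO wells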;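 further: higher means less YB-1 transcript or more CDIP transcript relative to DMSO; stock transfer was 100 nL into about 100 µL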
# PD-1 reverse act = activators reversing PD-1 mediated T-cell inhibition, primary screen, luminescence, primary human CD4 T cells, PD-L1 beads | AID 2316, 2010 | 29,000 tested, under 10 active | activation, % (test concentration not listed) | CellTiter-Glo 96 h;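 active means replicate mean of 50% or more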;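 further: 0% = median vehicle wells and 100% = positive control; 100 nL library stock added to about 50 µL; numbers are from one replicate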
# MITF inhib = inhibitors of MITF, primary screen, MITF inhibitor project, cell-based, luminescence; TRPM1 promoter luciferase, 24 h; inhibition, % (concentration not given with the values); hit rate 0.28% among 37,000;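 active means most replicates at 85% or more, or half of them and the mean; inconclusive means half reach 85% but not the mean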;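 further: human melanocyte line stably carrying TRPM1 promoter luciferase reporter; 0% = vehicle wells and 100% = a positive control; the first replicate is given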
# Starred values were filed as active, the others as inactive; u = inconclusive; x = no result given. Only part of the results is shown; the hit share may differ from the screen's.
canonical_smiles	Hedgehog inh	YB-1 expr inh	MITF inhib	PD-1 reverse act
CC(C)NC(=O)N(C)C[C@H]1Oc2ccc(NC(=O)Nc3ccc(C(F)(F)F)cc3)cc2C(=O)N([C@H](C)CO)C[C@@H]1C	7	0.087	13	-2.2
C[C@H](CO)N1C[C@H](C)[C@@H](CN(C)Cc2ccc(Cl)c(Cl)c2)Oc2ccc(NS(=O)(=O)c3ccccc3)cc2C1=O	-13	0.23	10	x
COc1ccc(CC(=O)NCC(C)C)cc1	-10	-0.17	-25	2.2
C[C@@H]1CN([C@H](C)CO)C(=O)c2cccc(NC(=O)c3ccc(-c4nccs4)cc3)c2O[C@H]1CN(C)C	8	-0.0062	10	x
Cn1c(SCC(=O)Nc2ccc3ccccc3c2)nnc1-c1cc2ccccc2o1	x	x	-6	-0.3
CC12CCC(c3c1nn(-c1ccccc1)c3C(F)(F)F)C2(C)C (configuration not stated)	u	-0.054	24	-5.5
CC1(C)[C@H](O)CC[C@@]2(C)[C@@H]3CC[C@](C)(C(O)CO)CC3=CC[C@H]12 (some centres not stated)	-28	-0.023	-4	2.7
C[C@H](CO)N1C[C@H](C)[C@H](CN(C)S(C)(=O)=O)Oc2ccc(NC(=O)CCCN(C)C)cc2C1=O	-11	0.3	-4	0.8
C[C@H]1CN([C@@H](C)CO)C(=O)c2cccc(NS(=O)(=O)c3ccccc3)c2O[C@H]1CN(C)S(=O)(=O)c1cccs1	-3	-0.33	0	x
C[C@@H]1CN([C@@H](C)CO)C(=O)c2cccc(NC(=O)c3cnccn3)c2O[C@@H]1CN(C)S(C)(=O)=O	-58	0.41	3	1.3
CC(C)NC(=O)Nc1ccc2c(c1)CC(=O)N([C@H](C)CO)C[C@@H](C)[C@H](CN(C)S(=O)(=O)c1ccccc1)O2	u	0.11	-6	2.6
C[C@H](CO)N1C[C@H](C)[C@@H](CN(C)S(=O)(=O)c2cn(C)cn2)Oc2c(NC(=O)C3CCCCC3)cccc2C1=O	-16	0.16	0	5.0
CNC[C@H]1Oc2c(NS(=O)(=O)c3ccc(Cl)cc3)cccc2C(=O)N([C@H](C)CO)C[C@H]1C	-3	-0.018	0	0.1
COc1ccc(CN(C)C[C@H]2OCCCC[C@@H](C)Oc3ccc(NC(=O)Nc4ccc(C(F)(F)F)cc4)cc3C(=O)N([C@H](C)CO)C[C@@H]2C)cc1	u	-0.33	-29	x
C[C@H]1CN([C@@H](C)CO)C(=O)c2cccc(NC(=O)c3cnccn3)c2O[C@@H]1CN(C)CC1CCCCC1	6	-0.25	-18	0.4
Cc1ccc(S(=O)(=O)Nc2ccc3c(c2)C(=O)N([C@H](C)CO)C[C@@H](C)[C@H](CN(C)S(=O)(=O)c2ccc(C)cc2)O3)cc1	x	x	-1	0.0
N#Cc1cnc2c(C(N)=O)cnn2c1N	3	-0.096	5	0.2
O=C(Nc1ccc(Cl)c(C(F)(F)F)c1)C(=S)NCc1ccco1	37	-0.23	-68	-0.2
O=C(CCCN1C(=O)c2ccccc2C1=O)Nc1ccc(Cl)cc1C(F)(F)F	x	x	-13	0.4
C=C(C(=O)O)[C@@H]1CC[C@@]2(C)C=CC(=O)[C@@H](CCC3(O)C(=O)C=C[C@]4(C)CC[C@@H](C(=C)C(=O)O)C[C@@H]34)[C@@H]2C1 (some centres not stated)	-13	-0.36	-21	1.0
CCOc1ccc2nc(SCC(=O)Nc3ccc(Br)cc3F)sc2c1	x	x	-6	0.7
Nc1nnc(SCC(=O)Nc2ccc(Oc3ccccc3)cc2)s1	x	x	-6	0.0
COc1ccc(S(=O)(=O)N(C)C[C@H]2Oc3ccc(N(C)C)cc3CC(=O)N([C@H](C)CO)C[C@H]2C)cc1	-7	-0.25	-1	-0.3
COc1ccc(NC(=O)N(C)C[C@@H]2Oc3ccc(NC(=O)Nc4c(C)noc4C)cc3C(=O)N([C@H](C)CO)C[C@@H]2C)cc1	-10	0.0039	6	x
CCCn1c2ccccc2c2nnc(SCCC(=O)O)nc21	x	x	2	-5.8
COc1ccc(S(=O)(=O)N(C)C[C@@H]2Oc3ccc(NC(=O)CCN4CCOCC4)cc3CC(=O)N([C@H](C)CO)C[C@@H]2C)cc1	-2	0.31	1	0.2
O=C(Nc1ccc2c(c1)OCO2)c1ccc(Br)o1	-58	0.12	-24	0.0
c1ccc2[nH]c(CCCc3nc4ccccc4[nH]3)nc2c1	-8	0.42	-6	0.0
C[C@H](CO)N1C[C@H](C)[C@@H](CN(C)C(=O)Nc2ccc(F)cc2)Oc2c(NC(=O)C3CC3)cccc2C1=O	-3	-0.016	0	x
COc1ccc(Cl)cc1N(CC(=O)Nc1ccc(F)c(F)c1)S(C)(=O)=O	x	x	2	-0.1

# Two records drawn at random from the list so far:
canonical_smiles	Hedgehog inh	YB-1 expr inh	MITF inhib	PD-1 reverse act
C[C@H]1CN([C@@H](C)CO)C(=O)c2cccc(NC(=O)c3cnccn3)c2O[C@@H]1CN(C)CC1CCCCC1	6	-0.25	-18	0.4
CC(C)NC(=O)N(C)C[C@H]1Oc2ccc(NC(=O)Nc3ccc(C(F)(F)F)cc3)cc2C(=O)N([C@H](C)CO)C[C@@H]1C	7	0.087	13	-2.2

# Compound profiles (already shown).
# CC(C)NC(=O)Nc1ccc2c(c1)CC(=O)N([C@H](C)CO)C[C@@H](C)[C@H](CN(C)S(=O)(=O)c1ccccc1)O2 as listed: Hedgehog inh: u; YB-1 expr inh: 0.11; MITF inhib: -6; PD-1 reverse act: 2.6
# O=C(Nc1ccc(Cl)c(C(F)(F)F)c1)C(=S)NCc1ccco1 as listed: Hedgehog inh: 37; YB-1 expr inh: -0.23; MITF inhib: -68; PD-1 reverse act: -0.2

# Next compounds.
canonical_smiles	Hedgehog inh	YB-1 expr inh	MITF inhib	PD-1 reverse act
Cc1noc(C)c1NC(=O)N(C)C[C@H]1Oc2ccc(N(C)C)cc2C(=O)N([C@@H](C)CO)C[C@@H]1C	-39	0.27	3	-0.9
C[C@H](O)c1nc2ccccc2c(=O)[nH]1	-9	-0.82	-11	0.5
Cc1cc(C(=O)Nc2cccc3c2O[C@H](CN(C)Cc2ccc(-c4ccccc4)cc2)[C@H](C)CN([C@H](C)CO)C3=O)n(C)n1	12	-0.13	-10	x
Cc1ccc(Nc2nc(Oc3ccc(OCc4ccccc4)nn3)nc(N3CCOCC3)n2)cc1	x	x	-43	-2.6
Cc1cc(C)nc(NS(=O)(=O)c2ccc(NC(=S)NC(=O)C3CCCC3)cc2)n1	x	x	0	-2.8
N#Cc1c(-c2ccccc2)cc2c(c1N)c(=O)oc1ccccc12	-20	-0.076	2	-1.5
CC(C)(C)C(=O)CSc1nnc(-c2ccncc2)n1-c1ccc(Br)cc1	x	x	-8	-0.6
CCN(CC)S(=O)(=O)c1cc(C(=O)Nc2ccccc2C)ccc1C	x	0.32	-30	-0.9
CC1=C(C(=O)Nc2ccccc2)C(c2ccccc2OCc2ccccc2)n2nnnc2N1 (configuration not stated)	x	x	54	-5.6
C[C@H](CO)N1C[C@H](C)[C@@H](CN(C)S(=O)(=O)c2cn(C)cn2)Oc2ccc(NC(=O)CCN3CCOCC3)cc2C1=O	-15	-0.2	0	-0.5
C[C@@H]1CCCCO[C@H](CN(C)C(=O)CCCN(C)C)[C@@H](C)CN([C@H](C)CO)C(=O)c2cc(NC(=O)C3CCCCC3)ccc2O1	-56	0.24	-10	1.7
COc1ccc(NC(=O)Nc2cccc3c2O[C@H](CN(C)C(=O)Nc2ccc(C(F)(F)F)cc2)[C@@H](C)CN([C@@H](C)CO)C3=O)cc1	-33	0.13	-11	1.4
CC(C)NC(=O)Nc1ccc2c(c1)CC(=O)N([C@H](C)CO)C[C@@H](C)[C@@H](CN(C)C(=O)Nc1cccc3ccccc13)O2	-6	0.25	-1	-1.1
CS(=O)(=O)c1sc(C(=O)O)c2c1C=CCC2	x	-0.25	12	0.4
C[C@@H]1CN([C@@H](C)CO)C(=O)c2cccc(NS(=O)(=O)c3ccc(Cl)cc3)c2O[C@@H]1CN(C)Cc1ccc(C(=O)O)cc1	-67	0.17	-4	1.4
Cc1noc(C)c1NC(=O)N(C)C[C@@H]1Oc2ccc(NC(=O)CCN3CCOCC3)cc2C(=O)N([C@@H](C)CO)C[C@@H]1C	12	-0.32	5	1.2
O=C(CSc1nnc(-c2ccccc2)o1)N1c2ccccc2CCc2ccccc21	10	-0.15	64	0.3
COc1ccc(-c2nn(C)c(=O)c3ccccc23)cc1NC(=O)COc1cccc(C)c1	x	x	6	-5.4
C[C@H]1CN([C@@H](C)CO)C(=O)Cc2cc(NC(=O)Cn3cnnn3)ccc2O[C@@H]1CN(C)C(=O)Nc1cccc2ccccc12	11	-0.35	12	-0.1
CCCCC/C=C\C/C=C\C/C=C\C/C=C\CCCC(=O)OC(CO)CO	-42	0.067	3	x
C[C@@H]1CCCCO[C@H](CN(C)Cc2ccccc2)[C@@H](C)CN([C@H](C)CO)C(=O)c2cc(NC(=O)Nc3ccc(F)cc3)ccc2O1	67*	0.56	3	-1.1
COc1ccc(S(=O)(=O)N(C)C[C@@H]2Oc3c(NS(=O)(=O)c4ccc(F)cc4)cccc3C(=O)N([C@H](C)CO)C[C@@H]2C)cc1	3	0.16	0	-1.6
C[C@H]1CN([C@@H](C)CO)C(=O)c2cc(NC(=O)NC3CCCCC3)ccc2O[C@H]1CN(C)CC1CCCCC1	-12	-0.043	-4	1.3
Cc1noc(C)c1NC(=O)N(C)C[C@H]1Oc2ccc(NS(C)(=O)=O)cc2C(=O)N([C@@H](C)CO)C[C@H]1C	-43	-0.52	-7	0.4
COc1ccc(NC(=O)Nc2cccc3c2O[C@@H](CN(C)S(=O)(=O)c2ccc(F)cc2)[C@H](C)CN([C@@H](C)CO)C3=O)cc1	-14	0.3	3	0.2
C[C@H]1CN([C@@H](C)CO)C(=O)c2cc(NC(=O)C3CC3)ccc2O[C@H]1CN(C)Cc1ccc(C(F)(F)F)cc1	x	0.18	-3	2.2
Cc1ccc2oc(-c3cccc(NC(=O)COc4cccc(C)c4C)c3)nc2c1	x	x	-49	0.9
COC(=O)C1=C2C(=O)c3c(O)cc(CO)cc3OC2C(O)C=C1 (configuration not stated)	45	-0.14	19	-13
C[C@@H]1CN([C@H](C)CO)C(=O)Cc2cc(NC(=O)CCCCCC(=O)Nc3ccccc3N)ccc2O[C@H]1CN(C)S(=O)(=O)c1ccc(Cl)cc1	x	0.26	8	1.9
C[C@H]1CN([C@@H](C)CO)C(=O)Cc2cc(NC(=O)Nc3ccccc3)ccc2O[C@H]1CN(C)Cc1ccc(Cl)c(Cl)c1	-21	-0.05	-3	-1.6

# (more compounds)
canonical_smiles	Hedgehog inh	YB-1 expr inh	MITF inhib	PD-1 reverse act
O=[N+]([O-])c1ccc(N2CCNCC2)cc1NCc1ccccn1	x	x	-12	1.5
COc1ccccc1N(CC(=O)N1CCCCC1)S(C)(=O)=O	x	x	-2	1.5
C[C@H]1CN([C@@H](C)CO)C(=O)c2cccc(NC(=O)c3ccc(-c4nccs4)cc3)c2O[C@H]1CN(C)CC1CCCCC1	-9	-0.083	-2	-0.7
Cc1cc(Br)ccc1NC(=O)Cn1cnc2ccccc2c1=O	x	x	-3	0.6
C[C@@H]1CN([C@H](C)CO)C(=O)c2cccc(NC(=O)Nc3ccc(F)cc3)c2O[C@@H]1CN(C)C(=O)Nc1ccc(F)cc1	-36	-0.22	-5	x
O=c1cc(CSc2ccccn2)c2ccc(O)cc2o1	-19	0.15	-48	-0.8
Cc1nnc(SCC(=O)Nc2ccc(Cl)c(C)c2)s1	x	x	13	1.0
Cc1noc(C)c1NC(=O)Nc1ccc2c(c1)CC(=O)N([C@H](C)CO)C[C@H](C)[C@H](CN(C)C)O2	x	-0.19	-3	x
CO[C@@]1(c2ccc3c(c2)OCO3)OC[C@@H]2[C@@H](c3ccc4c(c3)OCO4)OC[C@@]21O	40	0.88	x	x
CCn1c(SCC(=O)Nc2ccc3c(c2)OCCO3)nnc1-c1cccs1	x	x	-24	-1.4
Cc1noc(C)c1NC(=O)N(C)C[C@@H]1Oc2c(NS(=O)(=O)c3cccs3)cccc2C(=O)N([C@@H](C)CO)C[C@@H]1C	-40	-0.39	-7	0.3
CCC(Sc1nc2ccccc2s1)C(=O)Nc1ccc(Br)cc1 (configuration not stated)	x	x	13	0.8
O=C(NCc1ccccn1)c1cc2cc(Br)ccc2oc1=O	x	x	-26	-0.2
CCCc1cc(=O)[nH]c(SCC(=O)Nc2ccc(Cl)c(Cl)c2)n1	x	x	5	0.6
CCN(CC)c1nc(Oc2ccc(=O)[nH]n2)nc(N2CCOCC2)n1	x	x	4	-1.8
C[C@H](CO)N1C[C@H](C)[C@H](CN(C)C(=O)Nc2ccc(C(F)(F)F)cc2)Oc2ccc(NS(=O)(=O)c3ccc(Cl)cc3)cc2CC1=O	-23	0.27	-5	-0.8
C[C@@H]1CN([C@H](C)CO)C(=O)Cc2cc(N(C)C)ccc2O[C@H]1CN(C)S(=O)(=O)c1cccs1	-21	0.12	-3	0.6
COc1cc(C2SC(C)C(=O)N2CCc2ccccc2)cc(OC)c1OC (configuration not stated)	x	0.3	8	-0.8

# Screens as filed in PubChem BioAssay.
